# Assay outcomes (PubChem BioAssay)
# NS1 function inh: blocks influenza NS1 protein function | Potency, µM (series often up to 46.1 µM), for the others: top-dose activity, positive = more growth | S. cerevisiae slowed by influenza A NS1, growth recovery by OD600 | hit rate 0.4% among 270,000; active means well fitted rising curve with a large enough effect; inconclusive means small, poorly fitted or top-dose-only effect; inactive means no such curve, though single readings can be large or run the other way; note: nearly all actives have a fitted effect of over 50% in size
#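 Recovery from NS1-induced slow growth read by OD600 in budding yeast switched to galactose assay medium (pH 6.0, -URA) at 1:100 dilution. Compound 23 nl per well; the matching strain lacking NS1 serves as control.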
# 2A StopGo: lowers the luciferase signal of an FMDV 2A StopGo reporter; human cells with a luciferase reporter of 2A StopGo recoding; control for the full effect not named in the record; Potency, µM (highest dose often 57.9 µM), without a hit: at the top dose signal change, negative = less light; hit rate 1.2% among 410,000; AID 1159524; active = well fitted falling curve with a large enough effect; inconclusive = small, poorly fitted or top-dose-only effect; inactive = no such curve, though single readings can be large or run the other way; tested in HEK293T cells; note: % is set by controls: 0 for no effect and ±100 for the full control effect; nearly all actives have a fitted effect of over 45% in size; luciferase light after 4 h
# Cruzain noTriton: inhibitors of Trypanosoma cruzi cruzain without detergent. Potency, µM, without a hit: max response, negative = inhibition, usual class: inhibitors. hit rate 2.3% among 200,000. P25779. purified cruzain, Z-FR-AMC fluorescence, no detergent;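 note: plate controls were enzyme without inhibitor for no effect and buffer without enzyme for full effect; nearly all actives have a fitted effect of over 40% in size; top concentration of the series not given in the record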
# Target sequence (P25779 123-467 limits assumed): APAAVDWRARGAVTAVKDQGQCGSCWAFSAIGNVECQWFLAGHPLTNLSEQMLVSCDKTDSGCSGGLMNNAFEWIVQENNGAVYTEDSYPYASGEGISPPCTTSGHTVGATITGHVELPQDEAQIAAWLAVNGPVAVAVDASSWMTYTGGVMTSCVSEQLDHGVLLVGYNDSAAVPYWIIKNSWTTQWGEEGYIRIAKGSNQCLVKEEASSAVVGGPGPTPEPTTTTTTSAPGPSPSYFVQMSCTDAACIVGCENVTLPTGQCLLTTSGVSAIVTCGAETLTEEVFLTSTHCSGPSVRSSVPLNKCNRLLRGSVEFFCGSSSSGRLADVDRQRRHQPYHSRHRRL
#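 Detergent-free condition (0.00005% Triton X-100) in acetate buffer pH 5.5 with DTT. 1.5 nM enzyme and compound were pre-mixed 15 min, then 2 uM Z-FR-AMC substrate added; reaction progress from fluorescence change between first and third reads (60 s).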
# MARV entry inh: blocks Marburg virus binding to or entry into cells | Potency, µM (series often up to 37.8 µM), for the others: at the top dose activity change, negative = inhibition, usual class: inhibitors | AID 540276 | Marburg virus pseudotyped entry inhibition, cell reporter; control for the full effect not named in the record; about a third of the inactives were read at about 46 µM | hit rate 1.8% among 300,000; active = well fitted inhibition curve with a large enough effect; inconclusive = small, poorly fitted or top-dose-only effect, or effect the other way; inactive = flat fitted curve, though single readings scatter; tested in HEK293 cells; about a fifth of its hits are not listed in these tables; note: % is set by controls: 0 for no effect and ±100 for the full control effect; luciferase read-out
# LASV entry inh: Lassa virus entry inhibition. hit rate 1.2% among 300,000. AID 540256. Potency, µM (doses to about 37.9 µM), without a hit: at the highest dose activity change, negative = inhibition, usual class: inhibitors. Lassa virus pseudotype entry inhibition, cell reporter; control for the full effect not named in the record; active means well fitted inhibition curve with a large enough effect; inconclusive means small, poorly fitted or top-dose-only effect, or effect the other way; inactive means flat fitted curve, though single readings scatter; tested in HEK293 cells; note: % is set by controls: 0 for no effect and ±100 for the full control effect; nearly all actives have a fitted effect of over 50% in size; luciferase read-out
# Cruzain Triton: cruzain (T. cruzi) inhibition with detergent | P25779 | purified cruzain, Z-FR-AMC fluorescence, 0.01% Triton | Potency, µM, for inactives: max response, negative = inhibition, usual class: inhibitors | hit rate 0.43% among 200,000 | AID 1478;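 note: plate controls were neutral wells for no effect and buffer without enzyme for full effect; nearly all actives have a fitted effect of over 40% in size; top concentration of the series not given in the record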
#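 Compounds were screened in titration against cruzain (1.5 nM) with 0.01% Triton X-100 to counter colloidal aggregation. Activity was the AMC fluorescence increase over 60 s after adding 2 uM Z-FR-AMC at pH 5.5.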
# RE007 growth inh: less growth of the S. pombe RE007 Vpr strain. hit rate 0.21% among 360,000. AID 651644. Potency, µM (highest dose often 92.2 µM), for inactives: at the highest dose activity change, negative = less growth. S. pombe RE007 Vpr strain, BacTiter-Glo ATP luminescence, 24 h; control for the full effect not named in the record; active = well fitted falling curve with a large enough effect; inconclusive = small, poorly fitted or top-dose-only effect; inactive = no such curve, though single readings can be large or run the other way;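 note: % is set by controls: 0 for no effect and ±100 for the full control effect; nearly all actives have a fitted effect of over 50% in size; the assay follows cell death caused by Vpr and the record does not say whether a fall means rescue or toxicity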
#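 Fission yeast RE007 carrying one integrated HIV-1 vpr copy, seeded at OD 0.01 in PMG+AL medium with 23 nL pinned compound. Grown 24 h at 30 degrees; viability read by BacTiter-Glo luminescence after 5 min.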
# SARS PLpro yeast: SARS-CoV PLP inhibition in yeast. Potency, µM (top dose mostly 32.9 µM), inactives show top-dose activity, positive = growth rescue. AID 485353. S. cerevisiae expressing SARS-CoV PLpro, growth rescue; control for the full effect not named in the record. hit rate 0.19% among 330,000; active means well fitted rising curve with a large enough effect; inconclusive means small, poorly fitted or top-dose-only effect; inactive means no such curve, though single readings can be large or run the other way; note: 0% is about no effect; nearly all actives have a fitted effect of over 55% in size; growth read by luminescence after 48 h
# Numbers without * were called inactive; ? = inconclusive; · = not tested or not shown; & = joins results of further samples; [ ] = another dose, or the depositor's remark. Unless noted, calls come from the whole dose curve; as a rule, active = well fitted curve in the direction sought with a large enough effect; inconclusive = small, poorly fitted or top-dose-only effect, or another doubt; inactive = no such curve, though single readings can be large; an effect the other way counts as inactive or inconclusive. Potency is the fitted concentration of half-maximal effect.
SMILES,NS1 function inh,2A StopGo,Cruzain noTriton,MARV entry inh,LASV entry inh,Cruzain Triton,RE007 growth inh,SARS PLpro yeast
Cc1c(Cl)cccc1NC(=O)c1ncn(-c2ccccc2)n1,·,46%[activator],-3%,?,17%[46.1 µM],0.8%,·,·
C=CCCC(=O)Nc1nc(C)c(-c2csc(Nc3ccc(Cl)cc3Cl)n2)s1,27%,-12%,?,·,·,-1.3%,-2%,-15%
S=c1[nH]nc(-c2ccncc2)n1/N=C/c1cn(-c2ccccc2)nc1-c1ccc(Cl)cc1,?,-8%,·,22%[46.1 µM],-21%,·,5%,-1%
O=[N+]([O-])c1c(Nc2ccccc2)ccc2nonc12,-3%,-6%,-3%,?,-6%,2.1%,2%,2%
O=C(/C=C/c1ccccc1)N/C(=C/c1ccccc1)C(=O)N1CCCCC1,8%,24%,-9%,-2%,-27%,-4.8%,15%,1%
Cc1ccsc1/C=C1\SC(N)=NC1=O,-32%,12%,-15%,?,-1%,-4.0%,-29%,-3%
COc1ccc(OC)c(NC(=O)C2CCCN(S(=O)(=O)c3ccc4[nH]c(=O)ccc4c3)C2)c1 (stereo not drawn),·,-23%,29%,·,-4%[46.1 µM],-4.4%,·,·
C/C(=N\NC(=O)c1cccc(S(=O)(=O)N2CCCC2)c1)c1ccco1,·,18%,·,3%[46.1 µM],3%,·,0%,-4%
COC(=O)c1sc(S(=O)(=O)NCCC(=O)O)c(C(=O)OC)c1C,·,-13%,·,6%[46.1 µM],1%[46.1 µM],·,-10%,0%
COc1ccc(CCN)cc1OC,10%,-6%,·,·,·,·,-11%,2%
CC(=O)c1cc(CN2CCC(C(=O)Nc3ccc(-n4nc(C)cc4C)cc3)CC2)cs1,·,?,·,?,-23%,·,14%,·
CC(C)NC(=S)NC(=O)c1ccc(Cl)cc1Cl,1%,-20%,1%,?,10%,-2.3%,-16%,7.9µM*
Cc1nc(N)sc1Cc1ccc2c(c1)OCO2,-1%,-5%,2%,18%,2%,-0.9%,3%,3%
COCCC(=O)N1CCC(C(=O)Nc2ccc(Oc3ccccc3)nc2)CC1,-6%,10%,·,·,·,·,-5%,-3%
C=CCn1c(=O)c2ccccc2n2c(SCC(C)=O)nnc12,-2%,1%,·,0%[46.1 µM],3%[46.1 µM],·,1%,1%
O=C1COc2ccc(-c3n[nH]c(=O)c4ccccc34)cc2N1,·,-18%,·,-1%[46.1 µM],17%,·,-18%,-2%
O=C(CO/N=C/c1c(Cl)cccc1Cl)NNC(=O)c1ccc(Cl)cc1,1%,3%,·,0%[46.1 µM],4%,·,9%,-1%
Cc1cc(NC(=O)C(C)(C)C)no1,3%,-14%,11%,-3%,22%,9.6%,-10%,-1%
O=C(c1ccc(Br)o1)N1CCN(c2ccccc2F)CC1,-13%,15%,-7%,-4%,-18%,-3.4%,-15%,-7%
CN1C(=O)CSc2ccc(NC(=O)N3CCN(c4ccccc4)CC3)cc21,·,0%,·,-11%[46.1 µM],1%,·,-18%,-4%
Oc1ccc(/C=N/NC2=NCCCCC2)cc1,-1%,·,-13%,-6%,17%,0.0%,-20%,-5%
CCn1cc(C(=O)OCC(=O)Nc2ccc(C(C)C)cc2)c(=O)c2ccc(C)nc21,·,1%,·,-2%[46.1 µM],8%[46.1 µM],·,1%,-1%
CCOC(=O)C1CCN(S(=O)(=O)c2ccc3c(c2)NC(=O)C(C)C(=O)N3)CC1 (stereo not drawn),5%,-25%&-25%,19%,4%[46.1 µM],?,-2.8%,0%,0%
C=CCN(C(=O)c1cccc(N2C(=O)C3CC=CC(C)C3C2=O)c1)c1ccccc1 (stereo not drawn),·,-16%,·,2%[46.1 µM],14%,·,-9%,2%
O=C(Cn1nnc2ccccc2c1=O)NCCc1ccc(Cl)cc1Cl,16%,3%,-10%,0%,·,1.0%,-4%,0%
O=C1C(Nc2ccccc2)=C(N2CCCCC2)C(=O)c2ccccc21,-3%,-3%,-22%,?,-17%,-12%,?,3%
COc1ccc(Cl)cc1NC(=O)CNc1ccccc1CN(C)C1CCCCC1,·,?,·,2.5µM*,?,·,-1%,0%
CN1CCN(C(=O)/C(=C\c2cccs2)NC(=O)c2cccs2)CC1,12%,17%,-8%,6%,2%,-7.1%,-18%,16%
Cc1cc(/C=C(\C#N)C(=O)N2CCCCC2)cc(C)c1O,-5%,32%[activator],·,?,?,·,-4%,-4%
COc1cc(C(=O)Nc2cccnc2)cc(OC)c1OC,7%,-8%,·,-9%,?,·,0%,-7%
COc1cc(/C=C2/C(=N)N3N=C(C(C)C)SC3=NC2=O)ccc1OS(=O)(=O)c1ccccc1,-1%,-5%,·,?,2%[46.1 µM],·,-4%,5%
O=C(CSCc1c(F)cccc1Cl)Nc1cccnc1,-1%,15%,·,17%[46.1 µM],24%,·,22%,0%
Cn1ncc(C#N)c1NC(=O)C1CC(c2ccc(Cl)c(Cl)c2)=NO1 (stereo not drawn),1%,-14%,-16%,-13%,-24%,-2.2%,-4%,-6%
COc1cc(NC(=O)CN2C(=O)C(C)N(c3ccc(C)cc3)C2=O)cc(OC)c1 (stereo not drawn),·,0%,·,-4%,-18%,·,-16%,-7%
CCCCNC(=O)CN1C(=O)NC2NC(=O)NC21 (stereo not drawn),14%,-19%,-7%,·,·,0.4%,-3%,4%
CCc1ccc(NC(=O)c2cnn(-c3c(C)cccc3C)c2C2CCNCC2)cc1,·,-15%,2%,·,-2%[46.1 µM],-1.7%,·,·
CN=c1scc(-c2ccccc2F)n1/N=C/c1ccc[nH]1,·,126µM*,·,1µM*,·,·,?,-8%
O=C(CN1C(=O)CC(c2ccccc2)Sc2ccccc21)Nc1cccc(Cl)c1 (stereo not drawn),·,0%,-4%,2%[46.1 µM],·,-2.6%,·,·
O=S(=O)(Cc1noc(-c2ccc(Cl)cc2)n1)Cc1ccco1,7%,26%,·,?,-1%[46.1 µM],·,-8%,0%
O=C(COC(=O)/C=C/c1ccc(Br)o1)NCCCN1CCCC1=O,·,-2%,·,7%[46.1 µM],1%[46.1 µM],·,-19%,-1%
COCCN1C(=O)c2oc3ccccc3c(=O)c2C1c1ccc(OC)c(OC)c1 (stereo not drawn),-30%,-16%,0%,1%,11%,-0.8%,-1%,5%
CCOP(=O)(OCC)C(O)c1ccc(OC)cc1 (stereo not drawn),0%,-9%,·,12%[46.1 µM],-2%[46.1 µM],·,-5%,0%
Cc1ccc(CSCC(=O)N(C)CC(=O)Nc2ccccc2C(F)(F)F)cc1,·,-23%,·,-8%,?,·,-14%,3%
CCc1ccccc1NC(=S)N(Cc1cccc(C)c1)c1cccnc1,·,-28%,·,-18%[46.1 µM],14%,·,5%,0%
COc1cc2c(=O)n(CC3CCCO3)c(=O)n(CC(=O)Nc3cccc(Cl)c3)c2cc1OC (stereo not drawn),-23%,-28%,?,1%&1%,0%,-6.3%,-10%,6%
O=C(CN(CCO)c1ccccc1)Nc1cccc(S(=O)(=O)N2CCCC2)c1,·,-14%,·,?,-25%[46.1 µM],·,5%,-1%
OC(COc1ccc2ccccc2c1)CN1CCCC1 (stereo not drawn),6%,·,-5%,?,5%,0.4%,0%,-5%
CN1CCN(c2ccc([N+](=O)[O-])c(NCc3ccco3)c2)CC1,-10%,0%,-7%,12%,3%,-7.8%,2%,3%
COc1cc2ncnc(NCc3cccc(F)c3F)c2cc1OC,0%,-24%,·,·,·,·,18%,-2%
CC(OC(=O)c1ccc(NS(=O)(=O)c2ccc3[nH]c(=O)[nH]c3c2)cc1)C(=O)Nc1ccc(Cl)cc1 (stereo not drawn),13%,-19%,·,0%,-7%,·,-8%,0%
CCOc1ccc(N2CC(C(=O)Nc3ccc(F)cc3F)CC2=O)cc1 (stereo not drawn),4%,47%[activator],22%,?,-3%,4.4%,-3%,0%
COc1cc(OC)c(OC)cc1/C=N/Nc1ncnc2c1[nH]c1ccccc12,29%,-23%,18%,?,-17%,-6.1%,·,27%
Cc1cc(C(=O)CSc2nnc(-c3ccco3)o2)c(C)n1-c1ccc2c(c1)OCCO2,1%,?,10µM*,-15%,?,-3.9%,4%,3%
COc1cccc(OCc2cc(C(=O)N3CCN(c4ccccc4OC)CC3)no2)c1,-9%,33%[activator],·,·,·,·,-10%,-13%
Cc1cc(=O)[nH]c2ccc(S(=O)(=O)Nc3ccc(O)cc3)cc12,12%,-3%,·,·,·,·,7%,2%
Cc1csc(=O)n1CC(=O)OCc1nnc(-c2ccc(Cl)cc2)o1,·,3%,·,5%,18%,·,-6%,-3%
CCOC(=O)N1CCC(NC(=O)c2oc3c(F)cccc3c2C)CC1,5%,-2%,·,·,·,·,-8%,3%
O=C(NCc1ccco1)C12CN(Cc3ccccc3)CC1C(c1ccc([N+](=O)[O-])cc1)=NO2 (stereo not drawn),24%,-9%,-21%,·,·,-2.4%,-7%,-9%
CCCCNc1cc(=O)oc2ccccc12,-58%,-17%,5%,-15%,-13%,3.7%,1%,-3%
Cc1ccc(C(=O)N/C(=C/c2cccs2)C(=O)NCc2ccco2)cc1,17%,14%,14%,2%,0%,-5.9%,12%,-19%

# Next entries.
SMILES,NS1 function inh,2A StopGo,Cruzain noTriton,MARV entry inh,LASV entry inh,Cruzain Triton,RE007 growth inh,SARS PLpro yeast
CCOC(=O)c1ccccc1NC(=O)c1ccccc1NS(C)(=O)=O,-59%,?,-20%,2%,-5%,-2.1%,-10%,-3%
Cc1cccc2cc(CN(Cc3ccco3)C(=O)c3ccco3)c(=O)[nH]c12,15%,-1%,·,-30%[46.1 µM],8%[46.1 µM],·,-2%,-1%
Cc1ccc(N2CC(C)Cn3c2nc2c3c(=O)n(CC(=O)OCc3ccccc3)c(=O)n2C)cc1C (stereo not drawn),-39%,-21%,-8%,-5%&-20%,?,0.6%,-3%,2%
CCN1C(=O)c2ccccc2S(=O)c2ccc(C(=O)N3CCN(C(=O)c4ccco4)CC3)cc21 (stereo not drawn),-12%,1%,7%,-4%,1%,-0.7%,-9%,13%
Cc1nc(N2CCOCC2)sc1C(=O)NN,6%,-15%,·,?,?,·,4%,-2%
COc1ccc(/C(C)=N/NC(=O)CNC(=O)c2ccco2)cc1,-6%,-16%,·,?,14%,·,-17%,1%
